Source: PubChem
Six1-Eya2 blk: Six1/Eya2 interaction inhibition; Q15475+O00167; AlphaScreen GST-Six1/His-Eya2 binding, biochemical; stronger effect = lower value; control for the full effect not named in the record; activity change, % (concentration not given with the values); hit rate 0.56% among 360,000; AID 651725; in the data active = activity change below about -65%; inconclusive = about -30% to -65%; inactive = above about -30%; also: % is scaled to controls: 0 for no effect and ±100 for the full control effect
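AlphaScreen with GST-Six1 and His-Eya2 (5X mix: 250 nM and 500 nM), glutathione donor and nickel acceptor beads; buffer 50 mM Tris pH 8.0, 300 mM NaCl, 1 mM TCEP; 1 h at 37 C in the dark.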
TRPML1 agonist: human mucolipin-1 channel agonism. activation, % (concentration not given with the values). TRPML1-expressing cells, Ca2+ dye fluorescence, FDSS; host cell line not named in the record; reference of the full effect not given here. hit rate 0.12% among 410,000. Q9GZU1; in the data active = activation above about 50%; inconclusive = about 30% to 50%; inactive = below about 30%; also: 0% is about no effect; the text of the record puts the active cut at 80%
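In this qHTS format, compounds were pin-transferred onto Ca8-dye-loaded TRPML1-DL cells induced with Tet overnight, and intracellular Ca2+ fluorescence was recorded kinetically for 110 s after a 10 s baseline. A subsequent 4uM final 54-4 (EC80) addition followed by a second 110 s read served as the antagonist phase.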
TRPML1 blocker: human mucolipin-1 channel inhibition | hit rate 0.02% among 390,000 | AID 624415 | activity change, negative = inhibition, % (concentration not given with the values) | Q9GZU1 | TRPML1-inducible cells, Ca2+ dye fluorescence, FDSS; stronger effect = lower value; inhibition of EC80 agonist-evoked calcium signal; in the data active means activity change below about -50%; inconclusive means about -30% to -50%; inactive means above about -30%;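 also: stimulus is agonist 54-4 at its EC80 concentration; % is scaled to controls: 0 for no effect and ±100 for the full control effect; compound concentration not given in the record; the text of the record puts the active cut at -80%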
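Calcium fluorescence in TRPML1-DL cells induced overnight with Tet: a 110 s read after compound pin addition, then a 110 s antagonist read after challenge with 54-4 at 4 uM final (EC80).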
PINK1 expr mod: modulators of PINK1 expression; Potency, µM (doses to about 76.6 µM), for the others: top-dose activation (PINK1 increase), most hits filed as activators; AID 624263; PINK1 immunofluorescence, high-content cytometry, 24 h; hit rate 0.2% among 410,000; active = well fitted activation curve with a large enough effect; inconclusive = small, poorly fitted or top-dose-only effect; inactive = flat fitted curve, though single readings scatter; cell line not stated here;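 also: potency is read from the fitted curve at half-maximal effect; % of control where 0% means no effect; nearly all actives have a fitted effect of over 65% in size; a mitochondrial uncoupler was the plate control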
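Stable cell line treated 24 h with compounds at 5 concentrations (CCCP controls), then fixed and immunostained for PINK1 plus nuclear and cell stains; PINK1 immunofluorescence quantified by laser-scanning microplate cytometry.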
D2 ag: agonists of human D2 dopamine receptor (beta-arrestin) | P14416 | DiscoveRx PathHunter D2 beta-arrestin, luminescence, 90 min; 100% = 57 uM dopamine signal | activation, % (test concentration not listed) | hit rate 0.084% among 360,000; in the data active = activation above about 40%; inconclusive = about 15% to 40%; inactive = below about 15%; also: compound concentration not given in the record; the text of the record calls up to 30% inactive
Target sequence (P14416 whole entry, looked up): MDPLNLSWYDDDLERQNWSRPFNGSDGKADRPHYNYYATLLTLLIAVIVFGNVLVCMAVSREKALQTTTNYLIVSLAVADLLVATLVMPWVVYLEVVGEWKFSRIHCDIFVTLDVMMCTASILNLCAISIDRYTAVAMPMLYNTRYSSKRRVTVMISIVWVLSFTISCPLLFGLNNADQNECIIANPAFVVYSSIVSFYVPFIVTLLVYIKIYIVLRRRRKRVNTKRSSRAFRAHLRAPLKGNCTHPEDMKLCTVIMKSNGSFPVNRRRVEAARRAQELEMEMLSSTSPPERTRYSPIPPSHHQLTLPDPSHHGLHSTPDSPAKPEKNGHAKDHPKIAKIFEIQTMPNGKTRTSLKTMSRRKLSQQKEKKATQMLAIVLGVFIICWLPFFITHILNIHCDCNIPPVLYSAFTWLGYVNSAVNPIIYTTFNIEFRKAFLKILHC
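Agonist mode: compounds alone added to overnight-plated D2 PathHunter cells for 90 min at 37 C, with 57 uM final dopamine (EC100) defining full response. Beta-arrestin recruitment detected by chemiluminescent reagent, read after 1 h at ambient temperature.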
CtBP-E1A blk: blocks the CtBP interaction with E1A. AlphaScreen GST-E1A/His-CtBP binding, 1536-well; stronger effect = lower value; control for the full effect not named in the record. activity change, % (concentration not given with the values). hit rate 0.49% among 340,000; in the data active means activity change below about -65%; inconclusive means about -30% to -65%; inactive means above about -30%; also: % is scaled to controls: 0 for no effect and ±100 for the full control effect
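GST-E1A and His-tagged CtBP (125 nM each as 5X stock) were preincubated with pin-transferred compound for 2 h at 37 °C in the dark, then glutathione donor and nickel acceptor beads were added for 1 h before AlphaScreen reading.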
Starred values were filed as active, the others as inactive; ? = inconclusive; nt = not tested or not shown; [ ] = another dose, or the depositor's remark.

SMILES	Six1-Eya2 blk	TRPML1 agonist	TRPML1 blocker	PINK1 expr mod	D2 ag	CtBP-E1A blk
Cc1cccc(C2c3[nH]c4ccccc4c3CCN2C(=O)Cc2n[nH]c(C)n2)n1 (stereo unspecified)	7	0.3	7	1.5%	-4.1	-5
CCCOc1ccc(Oc2nc(NC)nc(N3CCOCC3)n2)nn1	nt	1.3	-17	0.1%	nt	nt
O=S(=O)(NC1CCCC1)c1ccc(S(=O)(=O)N2CCCN(Cc3ccccc3)C2)cc1	-2	1.0	12	-5.8%[38.3 µM]	0.4	2
COc1ccc(S(=O)(=O)Nc2ccc(S(=O)(=O)Nc3cc(C)nc(C)n3)cc2)cc1OC	-9	0.1	-11	1.2%	-2.8	-14
CC(OC(=O)c1ccc(Br)o1)C(=O)NCC1CCCCC1 (stereo unspecified)	10	1.2	9	12%	5.2	-13
COC(=O)c1ccc(COC(=O)C2CCN(S(=O)(=O)c3ccccc3C(=O)OC)CC2)cc1	5	2.4	21	-0.4%	-0.9	-10
CCOc1ccc(C(=O)NC(C)(C)CC)cc1	1	0.2	-3	0.7%	-2.5	4
Cc1ccc(NC(=O)/C(C#N)=C\c2ccc(Cl)cc2Cl)cc1C	nt	1.6	9	15%	nt	nt
Cc1cc(C(F)(F)F)n2nc(-c3cnn(C)c3C(F)(F)F)cc2n1	3	1.2	-15	-0.5%	-0.7	4
O=C(c1ccccc1)N1CCN(C(=O)c2cccnc2)CC1	16	0.3	5	-0.1%	1.6	nt
Cc1ccc(C(=O)Oc2ccc(N3C(=O)CCC3=O)c(C)c2)cc1	?	0.8	-9	0.9%	-2.7	0
Cc1ccc[n+](CC(=O)c2ccc(Br)cc2)c1	3	0.7	27	-0.8%	-4.1	-2
O=C(NC1CC1)C1=C[C@@H](c2ccccc2)C[C@@H](OCCCCO)O1	2	-0.7	19	1.9%	0.3	-11
CN(CC(=O)Nc1ccc(F)c(F)c1F)C(=O)CN1C(=O)C2CCCCC2C1=O (stereo unspecified)	-1	0.0	14	0.4%	-0.7	2
CN(C1CCCCC1)S(=O)(=O)c1cccc(C#N)c1	3	0.4	8	-0.1%	-22	4
CC(=O)Nc1ccc(Nc2ncnc3c2cnn3-c2ccccc2)cc1	-10	-0.2	-2	22%[38.3 µM]	-2.3	-10
CCOc1ccc(C(C)NC(=S)NCc2ccc(Cl)cc2)cc1 (stereo unspecified)	-20	8.4	13	1.3%	1.4	-8
Cc1cc[n+](-c2[nH]c(=O)sc2/C=N/N=C(\[O-])c2ccncc2)cc1C	-22	-0.2	16	-0.7%	2.4	-23
Cn1c2ccccc2c2c(C(=O)N3CCN(c4cccc(Cl)c4)CC3)cn(C3CCCCC3)c(=O)c21	nt	0.3	11	-0.9%	nt	nt
O=C(NCCc1ccc(F)cc1)c1ccc2c(=O)n3c(nc2c1)CCC3	-9	-0.3	5	-2.7%	-0.1	0
COC(=O)C1=C(C)N(Cc2ccc(C)cc2)C(=O)/C1=C\c1ccc(O)c(OC)c1	3	2.4	-4	27%	4.7	-7
Cc1nc(SCC(=O)NCc2ccc3c(c2)OCO3)nc(C)c1C	-9	-0.8	-5	-0.6%	-3.0	nt
CN(C)S(=O)(=O)c1cccc(C(=O)NCCOC(=O)c2cc(F)c(F)cc2Cl)c1	7	-0.6	22	2.4%	1.7	6
Cc1ccc(C(=O)c2c(C)oc3c2C(=O)C(=O)c2ccccc2-3)cc1	-13	12	16	-3.4%	?	?
COc1cc(C(=O)NC(=S)Nc2ccccc2[N+](=O)[O-])cc(OC)c1OC	-23	0.5	-3	0.6%	-8.9	nt
COc1ccccc1NC(=O)C1=C(C)Nc2nc(SCc3ccccc3)nn2C1c1cccs1 (stereo unspecified)	nt	1.7	35	5.5%	nt	nt
Oc1c(Br)cc(Br)cc1C=NCc1ccccc1	-8	-0.1	-4	-0.6%	-5.5	9
O=C(CSc1nc2[nH]ncc2c(=O)[nH]1)N1CCCC1	-6	-0.6	8	0.3%	2.2	8
COc1ccc(N/C=C/C(=O)c2ccc(Cl)cc2)cc1	-1	0.8	3	13%	0.0	14
CCN(CC)C(=O)CCSc1nnc(-c2ccco2)o1	5	0.0	-12	0.7%	-2.6	3
CCOC(=O)CNC(=O)CSc1cn(CC(=O)N2CCCCCC2)c2ccccc12	nt	-0.6	-9	0.8%	nt	nt
C=C(C)c1nc(N)nc(N)n1	1	-0.7	14	8.2%	-4.5	2
Nc1nc(Br)c2c(F)cccc2c1-c1ccc(Cl)cc1	14	2.9	47	-1.2%[38.3 µM]	1.6	21
COc1ccccc1-n1cnc2cc(NCc3ccccc3O)ccc21	-17	nt	nt	3.0%	-0.2	-14
COc1cc(S(=O)(=O)N2CCN(c3ccccc3F)CC2)ccc1Cl	2	1.9	15	3.1%	2.1	10
Cc1ccc(CSc2nnc(-n3c(=O)c(C#N)cc4c(=O)n5cccc(C)c5nc43)s2)cc1	nt	1.8	-16	1.1%	nt	nt
COc1ccccc1NC(=O)CN1CCN(CC(=O)Nc2ccc3c(c2)OCCO3)CC1	-1	-1.0	18	-0.9%	0.1	3
Cc1cc(N(C)/N=C/c2ccccc2O)nc(-c2ccccc2O)n1	3	-0.5	-5	4.1%	-0.6	8
Cc1nc2sc(C(=O)N(C)Cc3ccccc3)c(NC(=O)c3ccccc3)c2c(C)c1Cl	nt	2.2	-15	2.4%	nt	nt
COc1ccc(N(CC(=O)NC2CCCCC2)C(=O)CNC(=O)c2ccco2)cc1OC	2	0.8	1	2.3%	-2.8	-1
COc1ccc(S(=O)(=O)CCC(=O)O)cc1	-4	6.5	15	-1.1%	-2.0	4
CN(C)C/C=C/C(O)(c1ccccc1)c1ccccc1	21	0.0	-4	2.6%	-3.9	12
COc1ccccc1N(CC(=O)Nc1ccccc1C(F)(F)F)S(=O)(=O)c1ccc(C)cc1	nt	-1.0	17	1.6%	nt	nt
CCOC(=O)Cn1c(=O)c2c(nc(N3CCOCC3)n2Cc2ccccc2)n(C)c1=O	nt	-0.7	-17	1.2%	nt	nt
CC(C)C(=O)NC(Nc1ccc(S(N)(=O)=O)cc1)C(Cl)(Cl)Cl (stereo unspecified)	3	-1.2	-1	-0.2%	-0.5	-1
COC(=O)c1cc2n(n1)CCN(Cc1cccc(OC)c1)C2=O	2	0.1	-3	0.9%	6.0	2
CCOC(=O)c1c(C)[nH]c(C)c1S(=O)(=O)N1CCC(C(=O)Nc2ccc(F)cc2F)CC1	nt	-0.2	2	1.7%	nt	nt
O=C(CNC(=O)C12CC3CC(CC(C3)C1)C2)Nc1ncccc1O	-1	0.2	1	-1.0%	-2.6	-9
CSc1nsc(SCC(=O)Nc2ccc(C(C)=O)cc2)n1	19	1.8	-11	0.3%[38.3 µM]	-0.1	40
CCOc1ccccc1C(=O)N(Cc1ccccc1F)C1CCS(=O)(=O)C1 (stereo unspecified)	nt	-0.1	8	0.7%	nt	nt

(listing goes on)
SMILES	Six1-Eya2 blk	TRPML1 agonist	TRPML1 blocker	PINK1 expr mod	D2 ag	CtBP-E1A blk
Cc1cc(C)cc(N(C(=O)c2csnn2)C(C(=O)NC(C)(C)C)c2ccccn2)c1 (stereo unspecified)	17	0.2	22	-0.6%	0.4	-3
O=C(Nc1ccc(F)cc1F)c1cc2ncc(CCCl)cn2n1	0	0.4	-18	16%	3.1	3
CNc1nnc(C(F)(F)F)s1	14	0.9	-9	0.6%	-2.5	4
COC(=O)/C(=N/Nc1ccc(C)cc1)N1CCCc2ccccc21	-20	2.2	55	16%	-3.1	-6
O=C(CSc1nnc(CCCO)n1-c1ccccc1)NCCc1ccccc1	4	0.9	9	-1.1%[38.3 µM]	-2.9	-12
Cc1ccc(-c2cc(C(=O)N3N=C(C(F)F)CC3(O)C(F)F)c3ccccc3n2)cc1C (stereo unspecified)	-11	1.9	26	10µM*	-1.3	1
CC1CN(C)C(C)c2c1oc1ccc(N)cc21 (stereo unspecified)	-9	0.0	6	-1.8%	-2.2	-9
COc1ccccc1S(=O)(=O)N(C)C[C@H]1Oc2cc(C#CCC3CCCC3)ccc2S(=O)(=O)N([C@H](C)CO)C[C@H]1C	-9	1.1	6	1.2%	-16	-1
CCOc1ccc(CCNC(=O)c2c3c(nc4ccccc24)C(=O)N(C2CCCCC2)C3)cc1	nt	1.1	5	0.0%	nt	nt
COc1ccc(N(C(=O)c2ccncc2)S(=O)(=O)c2cccc([N+](=O)[O-])c2)cc1	-2	0.9	34	-0.6%	0.9	-6
COC(=O)CCn1nnc(-c2cccs2)n1	-1	-0.6	15	2.8%	-5.1	-1
C=CCN(CC=C)C(=S)NCCc1ccc(OC)c(OC)c1	9	-0.7	4	2.2%	-1.1	3
Cc1ccc(C(C)NC(=O)c2c(-c3ccccc3)noc2C)cc1C (stereo unspecified)	19	1.8	9	-1.6%	10.0	8
Cc1ccc(-c2nnc(OCc3nc4ccccc4n3C)c3ccccc23)cc1	1	-0.2	6	0.5%	-2.1	2
CCc1nnc(NC(=O)CC(C)c2ccccc2)s1 (stereo unspecified)	9	1.6	-4	0.7%	-1.2	2
O=C1c2ccccc2C(=O)N1CC1=NCCc2ccccc21	14	1.5	-11	1.0%	-1.7	4
CCOC(=O)N(C)C[C@@H]1OCc2ccccc2-c2c(n(C)c3ccccc23)C(=O)N([C@H](C)CO)C[C@H]1C	7	0.0	21	1.5%	-11	0
CN1OC[C@@H]2CN(C(=S)NCCc3ccccc3)[C@H](c3ccc(-n4ccnc4)cc3)C[C@@H]21	-7	-0.6	nt	1.6%	-1.4	0
Cc1ccc(CNC(=O)c2nc(SCc3ccc(F)cc3)ncc2Cl)cc1	nt	2.5	18	3.9%	nt	nt
